Assay outcomes deposited in PubChem BioAssay by Fisher Drug Discovery Resource Center.
NPYLR7 ag: agonists of mosquito NPYLR7 receptor, primary screen, cell-based, Aedes aegypti, calcium fluorescence, mosquito biting behavior. HEK293T NPYLR7/Galpha15, GCaMP6s calcium fluorescence. AID 1259423, 2018. activation, % at 10 µM. 270,000 compounds, 0.15% hits; in the data active = activation above about 40%;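 note: 0% = vehicle and 100% = reference agonist at the receptor; some compounds past the cut are filed as inactive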
NPYLR7 ag max-min: recorded beside NPYLR7 ag, whose call it bears; activation, %; measured here: Max-Min RFU normalised activation; some inactives read as strong as hits;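 span of the calcium signal over five minutes; 0% = vehicle and 100% = native peptide agonist; compound fluorescence can raise it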
Starred values were filed as active, the others as inactive; & = joins results of further samples. An excerpt; rates above refer to the full screens.

SMILES	NPYLR7 ag	NPYLR7 ag max-min
COc1ccc(NC(=O)N(Cc2nc(C(=O)N(CCN(C)C)Cc3ccccc3)cs2)C(C)C)cc1	17	21
CC(C)(C)c1nc(-c2ccc(O)c(O)c2)cs1	2	0
CCC(C)c1ccc(C(=O)COc2cccc(C#N)c2)cc1 (stereo not given)	0	1
CCOC(=O)C1=C(C)NC2=C(C(=O)CCC2)C1c1ccc(OCc2ccc(Cl)cc2)cc1 (stereo not given)	-10	-12
CC(C)N(CC(=O)Nc1cc(-c2ccccc2)nn1-c1ccc(F)cc1)C(=O)Nc1ccccc1Br	17	23
CN(C)c1cccc(Nc2cc3c(cn2)cc(-c2cccnc2)n3C)c1	-14	-15
Cc1cccc(CN(C(=O)c2ccc(C#CC(C)(C)O)cc2)C(C)C)c1	-2	-7
O=C(NCc1cccc(C(F)(F)F)c1)c1cn(CCOc2ccc(F)cc2)c(=O)s1	8	4
CC(c1ccc(F)c(F)c1)N1CCN(CCN2C(=O)CCC2=O)CC1 (stereo not given)	-1	-6
Cc1cccn2c(=O)c3cc(C#N)c(=N)n(CC(C)C)c3nc12	1	8
CCNc1ncc(C(=O)N(Cc2ccc(SC)cc2)C2CC2)cn1	3	-5
CNc1snc(C)c1C(=O)OCC(=O)N1CCCCCCC1	19	12

Three successive entries from above, quoted:
SMILES	NPYLR7 ag	NPYLR7 ag max-min
CC(C)(C)c1nc(-c2ccc(O)c(O)c2)cs1	2	0
CCC(C)c1ccc(C(=O)COc2cccc(C#N)c2)cc1 (stereo not given)	0	1
CCOC(=O)C1=C(C)NC2=C(C(=O)CCC2)C1c1ccc(OCc2ccc(Cl)cc2)cc1 (stereo not given)	-10	-12

(next part)
SMILES	NPYLR7 ag	NPYLR7 ag max-min
COc1ccccc1N1CCN(C2CCCN(Cc3cc(C)c(C)o3)C2)CC1 (stereo not given)	2	-2
CCS(=O)(=O)c1ccc2c(c1)N(Cc1ccccc1F)C(=O)C(C)O2 (stereo not given)	4	0
O=c1[nH]cc(C(F)(F)F)cc1Cl	-2	-1
CCOC(=O)c1c2n(c3cc(Cl)c([N+](=O)[O-])cc3c1=O)CCCCC2	-10	-11
CCc1ccc(-c2cc3c(SCC(=O)Nc4ccccc4OC)nccn3n2)cc1	3	1
COc1cc(OC)cc(-n2c(-c3snnc3-c3ccccc3)n[nH]c2=S)c1	-12	-16
CCN(C(=O)Cc1coc(-c2cccs2)n1)c1cccnc1	0	2
O=C(CN1C(=O)c2ccccc2C1=O)ON1C(=O)CCC1=O	-4	-7
CCCCCCCOC(=O)C1=C(C)NC(=O)NC1c1ccc(O)cc1 (stereo not given)	-2	4
CCC(c1ccc(F)cc1F)S(=O)CC(=O)N1CCC(C)CC1 (stereo not given)	0	19
CN1OCC(S(=O)(=O)N(C)Cc2ccccc2)C1c1ccnc2ccccc12 (stereo not given)	7	3
Cc1ccc2c(c1)c(C1CCN(C(=O)c3csc(-c4ccc5c(c4)CCO5)n3)CC1)cn2C	4	-1

Single values from the results shown.
Value for COc1ccccc1N1CCN(C2CCCN(Cc3cc(C)c(C)o3)C2)CC1 (stereo not given) under NPYLR7 ag: 2
Value for CCC(c1ccc(F)cc1F)S(=O)CC(=O)N1CCC(C)CC1 (stereo not given) under NPYLR7 ag max-min: 19
Value for CCN(C(=O)Cc1coc(-c2cccs2)n1)c1cccnc1 under NPYLR7 ag max-min: 2
Value for CCc1ccc(-c2cc3c(SCC(=O)Nc4ccccc4OC)nccn3n2)cc1 under NPYLR7 ag: 3
Value for CN1OCC(S(=O)(=O)N(C)Cc2ccccc2)C1c1ccnc2ccccc12 (stereo not given) under NPYLR7 ag max-min: 3

The results go on.
SMILES	NPYLR7 ag	NPYLR7 ag max-min
Cc1cccnc1NC(=O)c1c(O)c2ccccc2[nH]c1=O	7	5
COc1c(F)cc(CN2CCCC(O)(CO)CC2)cc1F (stereo not given)	-1	4
c1cc(NCc2nc(-c3ccco3)no2)cc(OC2CCCC2)c1	3	0
C=CCN(C)C(=O)c1coc(COc2cccc3cccnc23)n1	-4	-7
COc1ccc(-n2c(SCc3ccccc3Cl)nc3c(c2=O)SCC3)cc1OC	-3	-6
Fc1ccc(COn2nnc3ccc(Cl)cc32)c(Cl)c1	-12	-9
COc1cc(=O)n(-c2ccc(F)cc2)nc1C(=O)N1CCCc2ccccc21	15	13
CC1C(=O)N(c2ccc(Cl)cc2)CCN1C(=O)c1ccc(Br)cc1 (stereo not given)	-3	2
CC(C)(C)OC(=O)N1CCCN(CC(=O)NC(=O)Nc2ccccc2F)c2ccccc21	-3	-3
Cc1ccc2c(c1C)NC(=O)C2CC(=O)N1C[C@H]2C[C@H](O)[C@H](O)C[C@H]2C1 (stereo not given in full)	0	5
NC1CCN(c2ccccc2C(=O)NCc2ccncc2)CC1	21	45
Cc1nc(N2CCCC2)ncc1-c1cc(=O)[nH]c(N2CCOCC2)n1	2	-1

The closing 6 records of the section above come first, to join the parts:
SMILES	NPYLR7 ag	NPYLR7 ag max-min
COc1cc(=O)n(-c2ccc(F)cc2)nc1C(=O)N1CCCc2ccccc21	15	13
CC1C(=O)N(c2ccc(Cl)cc2)CCN1C(=O)c1ccc(Br)cc1 (stereo not given)	-3	2
CC(C)(C)OC(=O)N1CCCN(CC(=O)NC(=O)Nc2ccccc2F)c2ccccc21	-3	-3
Cc1ccc2c(c1C)NC(=O)C2CC(=O)N1C[C@H]2C[C@H](O)[C@H](O)C[C@H]2C1 (stereo not given in full)	0	5
NC1CCN(c2ccccc2C(=O)NCc2ccncc2)CC1	21	45
Cc1nc(N2CCCC2)ncc1-c1cc(=O)[nH]c(N2CCOCC2)n1	2	-1
CCCC(=O)N1CCCCC1C(=O)NCc1nc(-c2ccco2)n[nH]1 (stereo not given)	5	0
O=C(NN=Cc1ccsc1)C1CC1	-7	-8
COc1ccc(Cl)cc1N1CCN(C(=O)c2cccc(F)c2)C(C)C1=O (stereo not given)	-3	12
O=C(COCc1ccccc1)Nc1nnc(SCc2ccccc2C(F)(F)F)s1	7	13
Cc1ccn(-c2ccc(N3CCN(C(=O)c4ccc(C(F)(F)F)cc4)CC3)nn2)n1	-6	-12
O=C1OC(c2ccc(Cl)cc2)=NC1=Cc1ccc2c(c1)OCO2	0	1
Cc1cn2c3c(=O)n(Cc4ccccc4)c(=O)n(C)c3nc2n1C	0	0
Cc1cc(C)c2cccc(N=Cc3nc(-c4ccccc4)oc3O)c2n1	-8	-14
CNC(=O)c1cccc(S(=O)(=O)N2CCCC(O)(CN(C)C)CC2)c1 (stereo not given)	-1	6
CN(C)C(=O)c1cncc(N2CC[C@@H](c3ccc4ccccc4c3)[C@H](O)C2)n1	-8	-12
CCn1nc(C)cc1C(=O)N(CCN1CCCCC1)CC1CCCN(C2CCCC2)C1 (stereo not given)	-1	-3
CCN(CC(=O)Nc1ccc(NC(C)=O)cc1)c1ccc(C(F)(F)F)cn1	0	-1
Cc1ccn2c(=O)c(NC(=O)c3ccc(Cl)cc3)c(C)nc2c1	4	4
CCOC(=O)NCCS(=O)(=O)N1CCN(c2ccccc2)CC1	4	2
CCOc1ccccc1C(=O)Nc1ccc(N2CCN(C(=O)NCCCc3ccccc3)CC2)nc1	-1	1
O=C(NCC1CCOCC1)c1cccc2ccnn12	1	-2
CCOc1ccc(-c2noc(-c3cc(-c4ccco4)n[nH]3)n2)cc1	-3	-10
CCN(C(=O)c1nc(SC)ncc1Cl)c1cccc(C)c1	0	-3
CN(C)CCn1c2c(c(SCC(=O)NCc3ccccc3)nc1=O)CCC2	4	-1
COc1coc(CN2CC[C@H](CO)[C@H](O)C2)cc1=O	1	2
CN(C)C/C=C/C(O)(c1ccccc1)c1ccccc1	0	-2
COc1ccc(N)cc1S(=O)(=O)Nc1ccc(Br)cc1	4	1
CC(C)CNC(=O)CCN(Cc1ccccc1)c1nc(-c2cccs2)nc2ccccc12	16	20
O=c1c2c(nc3n1CCC3)sc1c(O)c(Br)ccc12	-1	-1
CCOC(CN1CCN(CC(C)C(=O)c2ccccc2)CC1)c1ccccc1 (stereo not given)	-3	-9
Cc1cc(N2CCCC2)nc(-n2nc(C)cc2C)n1	6	5
CCOC(=O)C1(Cc2ccccc2)CCCN(C(=O)NCc2ccccc2)C1 (stereo not given)	9&0	7&-8
CCOC(=O)C1(CCc2ccccc2)CCN(C(=O)CSc2ncccn2)CC1	3&2	6&3
COc1cccc(C(=O)N(Cc2c(-c3cccc(C)c3)noc2N2CCOCC2)C2CC2)c1	-10	-2
CC(=O)ON1C(c2ccccc2)N=C(c2ccccc2)C1(C)C (stereo not given)	-15	-20
CC(=O)N1CCN(C(=O)c2ccc(CSc3nc(-c4ccccc4)cc(N4CCCC4)n3)o2)CC1	13	21
NS(=O)(=O)c1cccc(NC(=O)CSc2nnnn2C2CC2)c1	3	23
O=c1[nH]c(CN2CCN(c3ccccc3)CC2)nc2ccccc12	7	7
O=C1NCC2(CCCN(C(=O)CCc3nc4ccccc4[nH]3)CC2)O1 (stereo not given)	12	9
CCCNC(=O)NC(C)C1c2cc(OC)c(OC)cc2CCN1Cc1cccc(F)c1 (stereo not given)	3	6
COc1ccc(CCOC(=O)[C@@H]2CCCN2C(=O)CCCNC(=O)OCc2ccccc2)cc1OC	14	1
O=[N+]([O-])c1ccc(S(=O)(=O)c2ccccc2[N+](=O)[O-])cc1	-4	-7
COc1ccc(CC(=O)NCCOc2ccc3nnc(-c4ccccc4)n3n2)cc1OC	-7	-12
CCc1nc2c(OCCc3cccc(OC)c3)cccn2c1N(C)C(=O)c1ccc(C)cc1	-1	4
Cc1noc(CN(C)C(=O)c2c(-n3cccc3)sc(C)c2C)n1	-5	-8
O=C(NC1CCN(c2ccccc2C(=O)NCc2ccc3c(c2)OCO3)CC1)c1cccs1	-3	-4
O=C(CN1CCCCC1)N1CCOC(CCCc2ccccc2)C1 (stereo not given)	5	0
O=c1oc2c(CN3CCN(CCO)CC3)c(O)ccc2cc1-c1ccc(Cl)cc1	7	2
C=CCN1C(=O)CC2(C1=O)C(=O)N(CCCOc1ccc(OC)cc1)c1ccc(Cl)cc12 (stereo not given)	4	-4
COc1ccc(C(CC(=O)NCCN2CCOCC2)c2c[nH]c3ccccc23)c(OC)c1 (stereo not given)	5	7
O=c1oc2ccccc2n1CCS(=O)(=O)NC1CCc2ccccc21 (stereo not given)	-2	-5
N#Cc1c(N)n[nH]c1CCCCCN=Cc1cc(Br)ccc1O	-1	-2
Cc1cccc(C(=O)NCc2cccc3c2OCCO3)n1	-1	1
CCCc1cc(C(=O)NC(CC)C2CCCO2)sc1C (stereo not given)	-5	-4
O=C(CCC1CCCC1)N1CCN(c2nc3nccc(-c4ccc(C5CCCCC5)cc4)n3n2)CC1	5	-2
O=C(CC(=O)Nc1ccc(F)c(Cl)c1)NCCCn1nnc2ccccc21	-2	-4
COc1ccc([C@@H](C)C(=O)c2ccc(O)cc2O)cc1	3	2
COCCNC(=O)c1ccccc1N1CCC(NC(=S)Nc2ccc(F)cc2)CC1	-3	2
O=C(CSc1nc2ccccc2[nH]1)NNC(=O)c1ccncc1	-2	-8
CN(C)C(=O)CN1C(=O)NC2(CCCCCCC2)C1=O	2	5
CSc1nc(C(=O)N2CCCC(CCC(=O)NCc3ccccc3F)C2)cs1 (stereo not given)	-12	-14
Cc1nc2ccccc2n1CCC(=O)N1CCCn2cncc2C1	-1	5
CC1CCC2C3(C)COC(C)(C)OC3CC[C@]2(C)[C@@]12CCC1(CCOC1)O2 (stereo not given in full)	4	2
CCOc1cccc(C2CC(=O)Nc3c2nc2n3CCCC2)c1O (stereo not given)	2	0
CS(=O)(=O)c1ccc(N2CCN(C(=O)CN3CCCCCC3=O)CC2)c([N+](=O)[O-])c1	9	6
Continued:
SMILES	NPYLR7 ag	NPYLR7 ag max-min
COCc1cc(=O)oc2cc(OC)ccc12	-6	-7
CN(C)c1ccc(CN(C)c2ccc3nnnn3n2)cc1	-1	-2
Cc1ccc(C)c(-c2nccn2C2CCNC2)c1 (stereo not given)	0	-2
CC1=NNC(c2ccc(O)cc2)C1 (stereo not given)	1	9
Cc1cc(C)n(CCN(C(=O)c2ccco2)c2nc3c(C)cc(Cl)cc3s2)n1	-18	-21
Cn1nc2nc(NCC3CCCO3)nc(-c3cccc(Oc4ccccc4)c3)c2c1N (stereo not given)	7	8
O=C(CCN1C(=O)C2CCCCC2C1=O)NNC(=O)CC12CC3CC(CC(C3)C1)C2 (stereo not given)	6	10
Clc1ccc(OCc2nc(CNC3CC3)cs2)cc1	36	35
CCOC(=O)c1cc(-c2ccc3ccccc3c2)n(-c2ccc(C(=O)NC(CC)COC)cc2)n1 (stereo not given)	3	4
CNc1nnc(SCc2sc3ccccc3c2Cl)s1	2	0
CC(C)=NNC(=O)COc1ccc(Cl)cc1C	-5	-7
Cc1ccccc1NCN1C(=O)c2cccc([N+](=O)[O-])c2C1=O	8	11
CN(N=Cc1sc2ccccc2c1O)c1ccccc1	-1	8
Brc1nc(Br)n(CC2CCCCO2)n1 (stereo not given)	1	9
Cn1nc(-c2cccc(NC(=O)C3c4ccccc4Oc4ccccc43)c2)ccc1=O	-2	-5
O=c1c2ccccc2nnn1CSc1nn(-c2ccccc2)c(=S)s1	1	7
COc1ccc(-n2c(SCc3ccc(C(N)=O)cc3)nnc2-c2ccc(C)cc2)cc1	-3	2
Clc1ccc(CN(CC2CC2)c2ccccc2)cn1	3	1
